Screens deposited in PubChem BioAssay by Johns Hopkins Ion Channel Center.
KCNQ2 enhance – KCNQ2 (rat) channel potentiation | CHO-K1 KCNQ2, FluxOR thallium flux fluorescence; active compounds read high | AID 2239 | 0.54% of 310,000 active | B-score at 10 µM | O88943;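 active = fluorescence ratio B-score at least 3 SD of library B-scores, with initial fluorescence B-score within 3 SD, cut at about 5.3 in these data; same plate scores as AID 2156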;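 note: B-score of peak minus minimum over baseline fluorescence ratio after K+ and Tl+ stimulus; positive B-score means potentiation of KCNQ2 with more thallium influx and brighter signal; only the inactives scoring about 0 or higher are listed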
Target sequence (O88943 whole entry, looked up): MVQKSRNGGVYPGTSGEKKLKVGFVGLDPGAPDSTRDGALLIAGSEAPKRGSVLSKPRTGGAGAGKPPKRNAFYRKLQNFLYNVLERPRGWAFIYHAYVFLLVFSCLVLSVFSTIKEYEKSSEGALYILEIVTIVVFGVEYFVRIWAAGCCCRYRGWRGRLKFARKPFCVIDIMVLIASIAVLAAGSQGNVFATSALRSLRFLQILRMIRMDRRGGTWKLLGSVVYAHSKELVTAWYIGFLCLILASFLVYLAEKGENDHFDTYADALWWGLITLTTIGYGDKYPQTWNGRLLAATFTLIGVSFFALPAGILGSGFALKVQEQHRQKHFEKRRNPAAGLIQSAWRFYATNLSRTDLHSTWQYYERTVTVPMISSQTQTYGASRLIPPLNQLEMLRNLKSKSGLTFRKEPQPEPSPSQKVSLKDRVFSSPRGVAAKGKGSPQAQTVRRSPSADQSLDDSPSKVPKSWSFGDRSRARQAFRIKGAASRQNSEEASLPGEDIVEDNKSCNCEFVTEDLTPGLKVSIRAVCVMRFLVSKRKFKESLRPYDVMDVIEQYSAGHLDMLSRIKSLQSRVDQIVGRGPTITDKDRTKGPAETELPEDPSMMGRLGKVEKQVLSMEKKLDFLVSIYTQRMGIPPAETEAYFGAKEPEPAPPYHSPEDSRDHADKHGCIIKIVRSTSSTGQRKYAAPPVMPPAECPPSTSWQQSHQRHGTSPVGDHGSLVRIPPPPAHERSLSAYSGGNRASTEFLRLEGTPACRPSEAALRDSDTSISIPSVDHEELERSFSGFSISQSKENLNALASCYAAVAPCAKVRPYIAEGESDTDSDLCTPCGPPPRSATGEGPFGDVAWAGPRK
KCNQ2 enhance baseline – recorded beside KCNQ2 enhance, whose call it bears; B-score; compound at 10 µM; measured here: initial fluorescence intensity artifact check;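 brightness before thallium and not channel activity; 0 = typical well and far values either way flag optical interference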
* = called active by the depositor.

SMILES	KCNQ2 enhance	KCNQ2 enhance baseline
COc1cccc(-c2c(C(=O)N/N=C/c3sccc3C)nnn2-c2nonc2N)c1	0.61	-1.62
CCCCCn1c(=O)[nH]c2cc(C(=O)NCCCN(C)Cc3ccccc3)ccc2c1=O	0.51	-1.51
COC(=O)c1ccc(COc2ccc(/C=N/Nc3nc(C)cc(=O)[nH]3)cc2)cc1	0.38	-0.06
O=C(NCCN1CCOCC1)c1cc(Sc2cccc(Cl)c2)nc2ccccc12	0.25	-2.78
Cc1cc(=O)[nH]c(/N=C(\N)Nc2ccc(SC(F)F)cc2)n1	2.97	-1.46
COc1ccc(CCNC(=O)CCCOc2cccc(C)c2C)cc1OC	0.1	0.58
CCOC(=O)c1[nH]c2ccc(C)cc2c1N	0.19	-0.67
Cc1ccc2[nH]cc(CCNC(=O)c3ccco3)c2c1	1.82	-2.75
CC(=O)Nc1ccc(S(=O)(=O)NCc2nc(-c3ccccc3Cl)no2)cc1	0.01	-2.39
CCCCS(=O)(=O)c1sc2nc3c(cc2c1N)CCCC3	0.09	-1.69
O=C1CCc2cc(S(=O)(=O)Nc3ccccc3)cc3c2N1CC3	1.27	0.45
CC(C)(C)OC(=O)N1CCC[C@H]1C(=O)Nc1ccc(S(=O)(=O)C(F)F)cc1	0.62	0.04
COc1ccccc1C(=O)N/C(=C\c1cn(C)c2ccccc12)C(=O)N1CCCC1	0.87	-0.93
O=C(Nc1ccc(Cc2ccncc2)cc1)c1ccc(S(=O)(=O)N2CCCC2)cc1	0.43	-1.04
COc1ccc(N2CCN(C3CC(=O)N(Cc4ccccc4)C3=O)CC2)cc1 (stereo not given)	2.94	8.73
CNC(=O)c1nn(-c2ccc(Cl)cc2)ccc1=O	0.36	-0.03
CC(=O)Nc1ccc(OCc2cccc3ccccc23)cc1	0.27	-0.14
O=[N+]([O-])c1ccc(N/N=C/c2ccc(O)c(O)c2O)c(S(=O)(=O)N2CCOCC2)c1	0.46	-0.45
O=C(c1ccc(Br)cc1)c1cc(-c2ccccn2)c(N2CCOCC2)s1	0.08	-1.78
Cc1nc(-c2ccccc2)cc(N2CCCC2)n1	1.2	0
CCN(CC)C(=O)C1CCCN(C(=O)c2cc(COc3cccc(OC)c3)on2)C1 (stereo not given)	1.4	-0.09
COc1ccc(-n2cc(C(=O)c3ccc4ccccc4c3O)cn2)cc1	1.52	-2.34
Cc1ccc(/C=N/n2nnnc2N)o1	0.86	-0.95
Cc1nn(C)c(C)c1S(=O)(=O)N1CCC(CO)(CC2CCCCO2)CC1 (stereo not given)	0.15	-0.09

An excerpt of these results, in markdown:
| mol | KCNQ2 enhance | KCNQ2 enhance baseline |
| --- | --- | --- |
| COC(=O)c1ccc(COc2ccc(/C=N/Nc3nc(C)cc(=O)[nH]3)cc2)cc1 | 0.38 | -0.06 |
| O=C(NCCN1CCOCC1)c1cc(Sc2cccc(Cl)c2)nc2ccccc12 | 0.25 | -2.78 |
| Cc1cc(=O)[nH]c(/N=C(\N)Nc2ccc(SC(F)F)cc2)n1 | 2.97 | -1.46 |
| COc1ccc(CCNC(=O)CCCOc2cccc(C)c2C)cc1OC | 0.1 | 0.58 |
| CCOC(=O)c1[nH]c2ccc(C)cc2c1N | 0.19 | -0.67 |
| Cc1ccc2[nH]cc(CCNC(=O)c3ccco3)c2c1 | 1.82 | -2.75 |
| CC(=O)Nc1ccc(S(=O)(=O)NCc2nc(-c3ccccc3Cl)no2)cc1 | 0.01 | -2.39 |
| CCCCS(=O)(=O)c1sc2nc3c(cc2c1N)CCCC3 | 0.09 | -1.69 |
| O=C1CCc2cc(S(=O)(=O)Nc3ccccc3)cc3c2N1CC3 | 1.27 | 0.45 |
| CC(C)(C)OC(=O)N1CCC[C@H]1C(=O)Nc1ccc(S(=O)(=O)C(F)F)cc1 | 0.62 | 0.04 |
| COc1ccccc1C(=O)N/C(=C\c1cn(C)c2ccccc12)C(=O)N1CCCC1 | 0.87 | -0.93 |
| O=C(Nc1ccc(Cc2ccncc2)cc1)c1ccc(S(=O)(=O)N2CCCC2)cc1 | 0.43 | -1.04 |
| COc1ccc(N2CCN(C3CC(=O)N(Cc4ccccc4)C3=O)CC2)cc1 (stereo not given) | 2.94 | 8.73 |
| CNC(=O)c1nn(-c2ccc(Cl)cc2)ccc1=O | 0.36 | -0.03 |
| CC(=O)Nc1ccc(OCc2cccc3ccccc23)cc1 | 0.27 | -0.14 |
| O=[N+]([O-])c1ccc(N/N=C/c2ccc(O)c(O)c2O)c(S(=O)(=O)N2CCOCC2)c1 | 0.46 | -0.45 |
| O=C(c1ccc(Br)cc1)c1cc(-c2ccccn2)c(N2CCOCC2)s1 | 0.08 | -1.78 |
| Cc1nc(-c2ccccc2)cc(N2CCCC2)n1 | 1.2 | 0 |
| CCN(CC)C(=O)C1CCCN(C(=O)c2cc(COc3cccc(OC)c3)on2)C1 (stereo not given) | 1.4 | -0.09 |

Continued:
SMILES	KCNQ2 enhance	KCNQ2 enhance baseline
O=C(COc1cccc2ccccc12)N/N=C/c1ccncc1	0.05	-1.4
COc1cc(C2NC(=O)c3ccccc3O2)ccc1OC(C)C (stereo not given)	0.11	-1.6
C/C(=N\NC(=O)CSc1nc(C)[nH]c1[N+](=O)[O-])c1ccc(F)cc1	0.49	-0.47
O=C(COc1ccc([N+](=O)[O-])cc1)Nc1ccccc1N1CCCC1	0.89	0.25
CCOc1ccccc1NC(=O)NC1CCCCCCC1	0.88	0.15
COc1cc(/C=N/NC(=O)CNC(=O)c2ccc3c(c2)OCCO3)ccc1O	1.25	0.07
C=C(C)[C@@H]1CC=C(C(=O)O)CC1	0.59	1.39
COC(=O)c1cc2occc2n1CC(=O)Nc1ccc(OC)c(OC)c1OC	2.06	-0.61
COc1ccc(NC(=S)NCc2ccc3c(c2)OCO3)cc1	1.61	-1.65
CCOC(=O)C1C(=O)CC(C)(O)C(C(=O)OCC)C1c1ccc(N(CC)CC)cc1 (stereo not given)	0.04	-0.78
Nc1nonc1-n1nnc(C(=O)N/N=C/c2ccncc2)c1-c1ccccc1	0.09	-0.56
COc1nnc(-c2ccc(N3CCCCC3)c(NC(C)=O)c2)c2ccccc12	0.75	-0.09

Ordered by formula weight (smallest number first): part of the list above.
SMILES	KCNQ2 enhance	KCNQ2 enhance baseline
COc1cc(/C=N/NC(=O)CNC(=O)c2ccc3c(c2)OCCO3)ccc1O	1.25	0.07
COC(=O)c1cc2occc2n1CC(=O)Nc1ccc(OC)c(OC)c1OC	2.06	-0.61
O=[N+]([O-])c1ccc(N/N=C/c2ccc(O)c(O)c2O)c(S(=O)(=O)N2CCOCC2)c1	0.46	-0.45

Going on with the list:
SMILES	KCNQ2 enhance	KCNQ2 enhance baseline
O=C(CSc1ccc2nnc(-c3ccncc3)n2n1)Nc1ccccc1F	0.09	-0.13
Cc1c(Cl)cccc1NC(=O)c1ccc(OCC(=O)NCc2ccccc2)cc1	1.16	0.08
CC(=O)c1ccc(OCc2ccccc2)c(C)c1O	0.88	1.3
CC(=O)Nc1ccc(Nc2c([N+](=O)[O-])cc(S(C)(=O)=O)cc2[N+](=O)[O-])cc1	0.01	2.12
CC(=O)Nc1ccc(Nc2ccc(N3C(=O)CCCC3=O)cc2[N+](=O)[O-])cc1	0.31	-0.22
O=C(NCCCc1ccncc1)C1CCC(=O)N(Cc2cccc(F)c2)C1 (stereo not given)	0.75	-3.51
CCOC(=O)c1c[nH]c2c(Cl)c(Cl)ccc2c1=O	0.84	0.64
O=C(CSc1nnc(NC(=O)C2CCC2)s1)Nc1ccccc1Br	0.69	0.04
Cc1ccc(NC(=S)NCCc2ccc(F)cc2)c(C)c1	0.22	0.03
CCN(CC)CCOC(=O)c1ccc(N/C=C(/C#N)c2nc(-c3ccc4c(c3)OCO4)cs2)cc1	0.19	2.05
COc1ccc(-c2csc(NC(=O)C(CC(=O)O)N3CCOCC3)n2)cc1 (stereo not given)	0.27	3.13
CCc1ccc(NC(=O)N2CCCCCC2)cc1	0.6	-0.22
COc1cc(CC(=O)Nc2nccs2)cc(OC)c1OC	0.22	-2.48
COC(=O)C(NC(C)=O)(Nc1nc2ccc(S(C)(=O)=O)cc2s1)C(F)(F)F (stereo not given)	0.18	-1.01
Cc1ccc(NC(=O)C2CC(=O)N(c3ccc4c(c3)OCCO4)C2)nc1 (stereo not given)	0.46	-2.24
Cc1ccc(S(=O)(=O)N2CCC(C(=O)NC3CCCC3)CC2)cc1Cl	0.75	-1.33
Cc1cc(C)c(NC(=O)CC(C)(C)C)c(Cl)c1	24.6*	-1.84*
CC(C)OCP(=O)(c1ccccc1)c1ccccc1	1	1.39
COc1ccccc1C(=O)N/C(=C\c1cn(C)c2ccccc12)C(=O)NCCCn1ccnc1	0.14	2.11
CCOC(=O)N1CCN(C(=O)c2cnn(-c3ccccc3)c2NC(=O)c2ccccc2F)CC1	1	-0.82
O=C1c2cccc3c([N+](=O)[O-])ccc(c23)C(=O)N1CCc1ccccn1	0.73	-0.96
Cc1cc(/C=N/NC(N)=S)c(C)n1-c1cccc(Cl)c1	0.29	0.43
COc1cccc2c1cc1c(=O)n(CC(=O)NCCCN3CCCCC3)nc(C)n12	1.04	-0.07
CCOc1ncccc1C(=O)NNC(=O)c1csc(N2CCOCC2)n1	2.21	-1.8
COc1ccccc1C(=O)OCc1ccc2sc(C)nc2c1	0.13	-0.01
COc1ccc(/C=N/NC(=O)Cc2csc(Nc3cccc(C(F)(F)F)c3)n2)c(OC)c1	0.19	1.52
CCCOc1ccc(C(=O)NCCO)cc1	0.26	-0.99
O=C(COC(=O)CN1C(=O)c2cccc([N+](=O)[O-])c2C1=O)NC1CCS(=O)(=O)C1 (stereo not given)	0.83	2.48
CC(=O)c1ccc(S(=O)(=O)NC2CC(=O)N(c3ccc(C)cc3)C2)cc1 (stereo not given)	0.19	1.03
Cc1nc(N)nc(-c2ccccc2O)n1	0.09	0.25
CCOCCOC(=O)c1ccc(NC(=O)C2COc3ccccc3O2)cc1 (stereo not given)	1.66	-3.34
Cc1cccc(-n2ncc(C(=O)NC3CCCC3)c2C2CCN(C(=O)OC(C)(C)C)CC2)c1	1.6	-1.48

An excerpt, so the mix of outcomes need not match the whole.
